YopH inh = inhibitors of Yersinia enterocolitica YopH tyrosine phosphatase; fluorescence Ex485/Em525; inhibition, %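 (about 10 µM by stock and volumes)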; 140,000 tested, 0.16% active;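 active = inhibition of 50% or more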;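 note: controls were vehicle for no effect and minimum signal wells for full effect; inactives centre near -20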
Mtb growth = M. tuberculosis H37Rv growth inhibitors, H37Rv strain (AID 1626). M. tuberculosis H37Rv growth inhibition; higher % means a stronger effect. one-dose inhibition, % at 10 µM; IC50 in µM for titrated hits. 220,000 tested, 0.95% active;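 active = confirmed in a dose series; inconclusive = inhibition above 80% but not taken into the dose series; inactive = below 80% or under 30% at every dose of the series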;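 note: bacteria incubated seven days before Alamar blue readout; 0% = bacteria only wells and 100% = bacteria with antibiotic wells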
Arbovirus inh = antivirals against arbovirus infection; arbovirus infection cell-based antiviral screen; inhibition, % at 10 µM; 200,000 tested, 0.37% active;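 active = inhibition from about 30%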;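 note: bluetongue infection of BSR cells; cell survival read as ATP light after 72 h; 0% = infected wells without compound and 100% = uninfected wells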
Mtb betalactam = beta-lactam sensitization of Mtb H37Rv. M. tuberculosis H37Rv growth with meropenem, percent inhibition; hits of this screen are not shown here. inhibition, % at 25 µM. 330,000 tested, 0.27% active;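 active = about 74% or more and at least 40 points above the plate without the antibiotic, then above 30% in a dose series; inconclusive = first-round hits that could not be retested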;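 note: growth measured after seven days incubation then overnight dye step; 0% = bacteria only wells and 100% = bacteria with antibiotic; twin plates without the antibiotic show which effects depend on it; some results filed as inactive read as strong as hits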
RecA splice inh = inhibitors of M. tuberculosis RecA intein splicing; P9WHJ3; cell-free RecA intein splicing, fluorescence; inhibition, %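 (about 9 µM by stock and volumes)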; 290,000 tested, 0.75% active; AID 2221; in the data active = inhibition above about 30%; inconclusive = no clear call, values can overlap the other calls;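 note: 0% = vehicle wells and 100% = reference inhibitor control wells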
Target sequence (P9WHJ3 whole entry, looked up, canonical isoform): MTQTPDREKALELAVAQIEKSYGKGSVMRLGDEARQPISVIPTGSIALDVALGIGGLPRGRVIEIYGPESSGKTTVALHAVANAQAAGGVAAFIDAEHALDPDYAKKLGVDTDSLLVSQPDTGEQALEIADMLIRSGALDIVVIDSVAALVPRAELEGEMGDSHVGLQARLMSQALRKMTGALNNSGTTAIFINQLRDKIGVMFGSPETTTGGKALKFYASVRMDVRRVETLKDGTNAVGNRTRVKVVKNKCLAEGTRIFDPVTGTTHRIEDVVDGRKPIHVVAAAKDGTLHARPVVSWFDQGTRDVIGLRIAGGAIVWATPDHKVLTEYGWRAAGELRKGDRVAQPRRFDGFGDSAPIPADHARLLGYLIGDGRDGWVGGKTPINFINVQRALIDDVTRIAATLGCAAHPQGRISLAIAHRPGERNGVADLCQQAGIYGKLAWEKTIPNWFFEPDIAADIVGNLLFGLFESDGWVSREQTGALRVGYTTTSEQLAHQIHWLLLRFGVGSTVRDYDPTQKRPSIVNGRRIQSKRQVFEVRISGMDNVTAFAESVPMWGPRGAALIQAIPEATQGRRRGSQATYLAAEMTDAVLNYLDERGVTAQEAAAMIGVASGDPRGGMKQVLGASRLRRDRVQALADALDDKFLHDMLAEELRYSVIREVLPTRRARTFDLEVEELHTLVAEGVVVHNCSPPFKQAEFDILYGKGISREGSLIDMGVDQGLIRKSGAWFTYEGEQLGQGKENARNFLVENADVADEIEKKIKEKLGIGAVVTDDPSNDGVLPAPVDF
Arbovirus inh repeat = further read-out of Arbovirus inh, marked with its call; inhibition, %; measured here: 10K subset replicate screen; many hits read low in the repeat;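 first of two repeat runs on a subset; 0% = infected and 100% = uninfected wells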
The depositor's hits bear a star; ? = inconclusive; . = no result given.

SMILES	YopH inh	Mtb growth	Arbovirus inh	Mtb betalactam	RecA splice inh	others
CCOCCCNS(=O)(=O)Cc1ccccc1	-13	-7%	0	-9	-12
CCOC(CCn1c(SCC(=O)Nc2cc(C)on2)nc2ccccc2c1=O)OCC	.	2%	3	-4	1.1
O=C(O)CCC(=O)Nc1ccc(C(=O)OC2CCCCC2)cc1	-61	6%	3	4	0.2
O=C1OCCC1Sc1nnc(-c2ccc(Cl)cc2)n1Cc1ccccc1 (centres undefined)	-16	-14%	-6	-1	1.5
COc1ccc(S(=O)(=O)Cc2ccc(C(=O)NCCCN(C)c3ccccc3)o2)cc1	-17	-4%	9	-2	-0.8
Cc1ccc(NC(=O)C2=CCN(S(=O)(=O)c3ccc(F)cc3)CC2)c(C)c1	-33	.	-5	-2	-1.4
COc1ccccc1CNC(=O)CCNS(=O)(=O)c1ccc2[nH]c(=O)oc2c1	.	.	.	1	-0.8
CC[C@H](C)[C@H](NC(N)=O)C(=O)Nc1ccc(OC)c(Cl)c1	.	-6%	4	3	-1.2
Cc1cccc(-n2cc(CNCCc3nc(C)cc(C)n3)c(-c3cccc(F)c3)n2)c1	.	?	.	31	2.8
Cc1nn(Cc2ccc(Cl)cc2Cl)c(C)c1NC(=O)CCl	-26	-7%	17	66	25
CC1=NN(c2ccc(C(=O)O)cc2)C(=O)CC1	.	.	.	-4	-1.4
CCOC(=O)c1c(NC(=O)CSc2nnnn2C)sc(C(=O)N(C)C)c1C	.	-5%	6	-3	-0.9
Cc1ccc(OCc2cc(C(=O)N3CCC(Oc4cccnc4)CC3)no2)cc1C	.	.	.	85	5.6
COc1ccc(NC(=O)C2CCC(C(C)(C)C)CC2)cc1S(=O)(=O)N1CCCCC1 (centres undefined)	-14	1%	14	-8	-0.5
CCOC(=O)COc1cc2c3c(c(=O)oc2cc1C)CCCC3	-1	1.6µM*	9	99	-0.7
Cc1ccc(CONC(=O)c2ccc(OC(F)F)cc2)cc1	.	0%	1	2	-3.4
Cc1nn(-c2ccccc2)c(C)c1C(=O)OCc1ccc(C#N)cc1	.	.	.	19	6.7
CCOC(=O)C1(CCCc2ccccc2)CCN(C(=O)CCc2cnn(C)c2)CC1	.	-1%	0	-5	1.8
O=c1[nH]c2ccccc2n1CCCN1CCC(n2c(=O)[nH]c3cc(Cl)ccc32)CC1	-26	.	1	-1	-2.6
CC(=O)Nc1cccc(NC(=O)CCNC(=O)c2ccccc2)c1	.	.	.	-5	-1.0
C=CCOC(=O)Nc1c(C(=O)OC)[nH]c2ccccc12	5	-2%	-3	26	.
Cc1cc(C)n2ncc(C(=O)NC3CCCCC3)c2n1	.	6%	-4	10	-0.9
COc1cccc(C(=O)Nc2ccc3c(c2)C(=O)N(CC2CCCO2)C3=O)c1 (centres undefined)	.	.	.	?	-1.7
Cc1cc(=O)oc2c1c(C)nn2-c1ccc(Cl)cc1	.	-1%	4	5	1.9
COC(=O)C1=C(C)OC(N)=C(C#N)C1c1cccnc1 (centres undefined)	-5	-12%	-1	4	0.1
COc1ccc(C(=O)Nc2ccccc2)cc1S(=O)(=O)NCc1ccco1	.	.	.	-3	-0.7
O=C(Nc1ccc(Cl)cc1)C(c1ccccc1)N1CCOCC1 (centres undefined)	.	4%	1	8	3.2
O=C(/C=C/c1ccccc1)N(Cc1cccs1)C1CCS(=O)(=O)C1 (centres undefined)	.	6%	.	-6	1.0
COC(=O)C1=C(C)Nc2sc(C(N)=O)c(N)c2C1c1ccncc1 (centres undefined)	-30	-2%	6	5	-28
CCc1cc([N+](=O)[O-])cc(CC)c1N	0	-8%	7	5	-2.6
CCC(=O)NC(Cc1ccccc1)c1nc2ccccc2[nH]1 (centres undefined)	.	.	.	3	-0.8
CCCCN(C)CCn1c(=S)[nH]c2cc(OCC)c(OCC)cc2c1=O	.	4%	6	0	0.5
CCOc1c(C=C(C#N)C#N)c2ccccc2n1CC	-14	2%	3	6	1.0
Cc1cccc(/C=N\NC(=O)c2sccc2-n2cccc2)c1	31	7%	8	5	-3.4
CCCCN=C(N)/C(C(=O)OCC)=C(\O)c1ccc(OC)cc1	0	-4%	-1	-6	0.8
Cc1cccc(C)c1NC(=O)CSc1nc(-c2ccco2)cc(C(F)(F)F)n1	-10	2%	-25	-7	0.6
Cc1ccc(N2CCN(S(=O)(=O)c3c(C)noc3C)CC2C)cc1 (centres undefined)	.	.	.	-1	2.9
CSc1ccc(CCNS(=O)(=O)c2csc(C(N)=O)c2)cc1	.	.	.	4	1.2
Cc1c(NS(=O)(=O)c2ccccc2)cc(Cl)c(O)c1C	-94	-11%	-28	-7	1.4	Arbovirus inh repeat=-29
CCOC(=O)c1cc(NC(=O)c2ccc(Cl)cc2)c(=O)oc1-c1ccccc1	-45	0%	-1	4	-0.7
CCn1cc(C(=O)N2CCc3ccccc32)c(=O)c2cc(S(=O)(=O)N3CCCCCC3)ccc21	14	-1%	-4	0	1.6
C/C(=N/NC(=O)Cc1cccs1)c1ccco1	-14	10%	3	-10	-0.8
CCN(CC)c1ccc(C(=O)OCC(=O)N2CCN(c3ccccc3)CC2)cc1	-17	6%	-7	18	-0.9
COc1ccc(NC(=O)[C@H](NC(=O)[C@@H]2Cc3ccccc3CN2)c2ccccc2)cc1	.	.	.	1	3.8
COc1ccc(S(=O)(=O)Nc2ccc3oc(C)c(C(C)=O)c3c2)cc1	-14	3%	2	3	-2.3
CC(=O)c1cccc(OCC(=O)N2CCN(c3ccc(C(F)(F)F)cn3)CC2)c1	.	6%	14	-1	-1.1
CN(C)c1nc(NCc2ccccc2)nc(N/N=C/c2ccc(Cl)cc2Cl)n1	1	-3%	-5	13	-1.7
CCOc1cc(/C=N/NC(=O)CCn2nc(C)cc2C)ccc1O	.	4%	.	-2	-9.0
C[C@]12CCC(=O)C[C@@H]1CC[C@@H]1[C@@H]2CC[C@]2(C)C=CC[C@@H]12	.	-7%	13	-2	3.6
Cc1ccc(CNC(=O)c2cn(C)c(=O)c3c2c2ccccc2n3C)o1	-24	-6%	-3	2	-0.4
COC(=O)c1c(C)oc2ccc(N(C(=O)c3ccncc3)S(=O)(=O)c3ccc4ccccc4c3)cc12	-24	3%	-11	7	38*
CCCCCCCC(=O)N/N=C/c1ccco1	-41	49%	-1	93	0.1
CN(C)CCN(C(=O)CN1C(=O)c2ccccc2C1=O)c1nc2cc3c(cc2s1)OCCO3	.	.	.	5	-2.1
O=C(CN1C(=O)S/C(=C\c2ccc(Cl)cc2)C1=O)NNC(=O)c1ccccc1O	-34	-5%	-14	-3	23
CN1CCN(Cc2c(O)ccc3c(=O)c(Oc4ccccc4Cl)c(C(F)(F)F)oc23)CC1	3	0%	8	-1	-2.2	Arbovirus inh repeat=3
Cc1ccc(N2CC(c3nc4ccccc4n3C)CC2=O)cc1C (centres undefined)	-34	-1%	-3	-3	0.1	Arbovirus inh repeat=2
CC1(C)CC(NC(=O)C(c2ccccc2)c2ccccc2)CC(C)(C)N1	.	.	.	-2	-0.8
O=C(CC(C(=O)O)c1ccc(Cl)cc1)c1ccccc1 (centres undefined)	.	-5%	13	0	-1.4
CCN(CC(=O)Nc1c(F)cccc1F)C(=O)CCSc1ccc(C)cc1	.	.	.	-8	-2.0
O=C(Nc1ccc2c(c1)OCO2)N1CCN(c2ncc(C(F)(F)F)cc2Cl)CC1	-16	8%	-16	5	5.6

The list continues.
SMILES	YopH inh	Mtb growth	Arbovirus inh	Mtb betalactam	RecA splice inh	others
Cc1ccc(NC(=O)CN2C(=O)S/C(=C\c3ccc(C(=O)O)cc3)C2=O)cc1	.	.	.	2	-0.5
COCCOC(=O)C1=C(C)OC(N)=C(C#N)C1c1cc2cccc(C)c2nc1Cl (centres undefined)	.	-12%	8	2	-5.4
CCOc1ccc(Br)cc1S(=O)(=O)NCc1ccncc1	.	2%	3	0	3.5
COc1ccc(C(=O)NCCN2CCCC2)cc1[N+](=O)[O-]	.	.	.	0	-2.2
COc1ccc(NC(=O)c2cccc(-n3cnnn3)c2)cc1	-16	-3%	4	-28	-2.3
COCCOC(=O)C1=C(N)Oc2c(c(=O)oc3ccccc23)[C@@]12C(=O)Nc1ccccc12	.	-14%	6	-6	4.0
O=C(Nc1ccc(Br)cc1)c1cccc(S(=O)(=O)Nc2ccccn2)c1	.	.	.	-5	0.2
O=C(CCN1C(=O)/C(=C/c2ccccc2)SC1=S)NCCc1ccc(O)cc1	.	.	.	0	3.8
O=C(CN(C(=O)CCC(=O)Nc1nccs1)c1ccc2c(c1)OCCO2)NCc1ccco1	-22	1%	2	-6	-0.8
C=Cn1ccnc1P(=S)(c1ccn(C)c1)c1nccn1C=C	-53	-6%	11	-3	1.8	Arbovirus inh repeat=0
COc1cc(-c2nc3c[n+](CC(=O)c4ccccc4)ccc3n2C)cc(OC)c1OC	-14	-2%	0	-1	-0.9
O=C(CSc1cccc(C(F)(F)F)c1)NCc1ccccc1	-23	4%	-7	1	1.1
O=S(=O)(c1ccccc1)N1CCN=C1SCc1c(F)cccc1Cl	.	.	.	?	2.1
O=C(NCc1ccc(-n2cccc2)cc1)c1cccc(F)c1	.	.	3	-4	-1.6
COc1cc(CNC2CCCC2)cc(Cl)c1OCc1ccc(F)cc1	-37	12%	-41	56	5.1
CN(C)c1cccc(C(=O)OCC(=O)NCC2CCCO2)c1 (centres undefined)	-26	-10%	2	-4	1.1
COc1ccccc1N1CCN(C(=O)c2ccc(COc3cccc4c3OC(C)(C)C4)cc2)CC1	.	.	.	-1	7.6
O=C(/C(=C(\[O-])c1ccccc1)[n+]1ccc2ccccc2c1)c1ccccc1	69*	4%	-19	0	5.3
O=C1CN(CC(=O)NC2CCCc3ccccc32)CCN1 (centres undefined)	.	.	.	2	-1.6
CCOC(=O)C1(CCOc2ccccc2)CCN(Cc2cccn2-c2ncccn2)CC1	.	61%	-3	44	.
Cc1ccc(CN2CCN(c3cccc4[nH]ccc34)CC2)cc1	.	.	.	-2	-0.3
COc1cc(C(=O)OCC(=O)NC2CCCCCC2)ccc1OCC(C)C	.	.	.	0	-0.7
CCOC(=O)C1(CCCc2ccccc2)CCN(C(=O)Cn2nc(C)nc2C)CC1	.	-3%	.	5	-1.2
Cc1c(Cl)c(C(=O)NNC(=S)Nc2ccc(F)cc2)nn1C	.	-7%	-3	0	-3.2
Cn1nc([N+](=O)[O-])nc1S(C)(=O)=O	.	57%	-31	.	9.8
O=C(CCNc1ccc(Cc2ccncc2)cc1)c1cccc([N+](=O)[O-])c1	.	68%	-10	69	0.6
Cn1c(=O)n(CCCOc2ccc(Cl)cc2)c2ccccc21	-10	10%	5	-1	12
Cc1ccc(CCNC(=O)c2nnn(-c3cc(C)cc(C)c3)c2N)cc1	-44	3%	8	11	-2.0
OC(COCc1cccs1)CN1CCN(c2cccc(Cl)c2)CC1 (centres undefined)	-28	4%	-9	33	3.1
COc1ccc(S(=O)(=O)Nc2nnc(C)s2)cc1	-54	-8%	6	-6	-1.5
Cc1ccc(CSCc2nnc(SCC(=O)N3CCN(c4ccccc4)CC3)n2C)cc1	-12	4%	-13	0	0.2
COc1ccc(S(=O)(=O)N2CCC(C(=O)NCc3ccccn3)CC2)cc1Cl	-33	-4%	7	-11	-3.0
COCCn1c(-c2ccc(SC)cc2)nc2c1c(=O)[nH]c(=O)n2CC(C)C	.	.	.	0	-1.8
CNc1nc(SCc2ccccc2Cl)nc2c1CCCC2	-43	?	-21	100	5.0
Cc1cccc(Oc2ncnc3onc(C)c23)c1C	13	0%	-5	2	0.2
COc1ccc(S(=O)(=O)N2CCCC2C(=O)Nc2nc3c(s2)CCCC3)cc1 (centres undefined)	-31	-7%	4	3	-1.5

Reprinted at random: four entries already listed.
SMILES	YopH inh	Mtb growth	Arbovirus inh	Mtb betalactam	RecA splice inh	others
COCCn1c(-c2ccc(SC)cc2)nc2c1c(=O)[nH]c(=O)n2CC(C)C	.	.	.	0	-1.8
Cn1nc([N+](=O)[O-])nc1S(C)(=O)=O	.	57%	-31	.	9.8
O=C(CCNc1ccc(Cc2ccncc2)cc1)c1cccc([N+](=O)[O-])c1	.	68%	-10	69	0.6
Cn1c(=O)n(CCCOc2ccc(Cl)cc2)c2ccccc21	-10	10%	5	-1	12

(list continues)
SMILES	YopH inh	Mtb growth	Arbovirus inh	Mtb betalactam	RecA splice inh	others
Cc1ccc(-c2nnn3c2nc(NC(C)C)c2ccccc23)cc1	.	.	.	-10	3.5
CC1CC1C(=O)Nc1nc(-c2ccccc2)cs1 (centres undefined)	-21	-13%	18	4	2.2
CCN(CC(=O)NCc1ccc(Cl)cc1)C(=O)CSCC(=O)Nc1ccc(C)cc1	.	.	.	-17	-0.5
CCOCC(=O)Nc1c(C(=O)Nc2ccc3c(c2)OCCO3)oc2ccccc12	.	-2%	10	-3	6.9
CN(C)CCCN(C(=O)COc1ccccc1)c1nc2cc3c(cc2s1)OCCO3	.	.	.	0	2.5
CCN(N)C(=S)Nc1ccc(F)cc1	.	5%	18	-2	-1.6

The list is partial; rates above refer to the full screens.
